Bioassay records as filed in PubChem.
E coli growth: E. coli growth inhibition; 330,000 compounds, 0.21% hits; AID 1053175; OD600 absorbance (no concentration beside the values); Escherichia coli growth, OD600, 23 h; active compounds read low;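 active = OD600 absorbance below the run mean of sample wells minus 3.6 SD, in any replicate, cut at about 0.56 in these data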;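 note: stock transfer was 300 nL into about 60 µL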
FGF22 binding: binders of recombinant human FGF22 by thermal shift. 340,000 compounds, 1.5% hits. calls only at 9.99 µM. Q9HCT0. AID 651658. SYPRO orange fluorescence; percent of sucrose octasulfate shift, DMSO zero;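 active = melting point raised past a set limit in the mean and every replicate; inconclusive = no clear call; three in four hits are not shown here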
Target sequence (Q9HCT0 whole entry, looked up): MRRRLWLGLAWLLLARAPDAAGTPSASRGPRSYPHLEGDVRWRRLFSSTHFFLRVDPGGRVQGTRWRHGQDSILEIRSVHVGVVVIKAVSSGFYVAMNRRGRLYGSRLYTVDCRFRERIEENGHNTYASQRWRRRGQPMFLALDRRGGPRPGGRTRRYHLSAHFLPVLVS
Beta2AR agonist: activates human beta-2 adrenergic receptor causing internalization | Am2.2-beta2AR cells, FAP receptor internalization, flow cytometry; reference of the scale not given here | response, % (no concentration beside the values) | 340,000 compounds, 0.43% hits;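 active = response above a set limit, near 3 SD of response in nonfluorescent compounds, cut at about 42% in these data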;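 note: stock transfer was 100 nL into about 11 µL; a reference agonist was the positive control; negative values mostly stem from fluorescent compounds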
UCH37 inh: inhibitors of human deubiquitinating enzyme UCH37. Q9Y5K5. purified proteasome/UCH37, Ub-AMC cleavage fluorescence. inhibition, % (concentration not given with the values). 330,000 compounds, 0.33% hits;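 active = mean of two replicates above 20%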;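 note: 0% = compound-free wells with enzyme and 100% = wells lacking proteasome; stock transfer was 100 nL into about 20 µL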
Target sequence (Q9Y5K5 whole entry, looked up): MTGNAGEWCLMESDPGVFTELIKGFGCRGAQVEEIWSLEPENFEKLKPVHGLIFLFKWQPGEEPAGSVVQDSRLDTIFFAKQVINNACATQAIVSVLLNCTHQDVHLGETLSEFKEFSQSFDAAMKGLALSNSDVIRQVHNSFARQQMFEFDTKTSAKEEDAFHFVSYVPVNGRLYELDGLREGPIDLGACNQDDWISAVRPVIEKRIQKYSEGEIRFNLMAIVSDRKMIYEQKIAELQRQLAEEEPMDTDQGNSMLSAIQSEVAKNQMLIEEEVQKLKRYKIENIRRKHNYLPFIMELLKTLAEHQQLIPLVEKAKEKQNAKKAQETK
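Material: human UCH37 enzyme supplied as purified proteasome complex. Measure: % inhibition of Ub-AMC cleavage fluorescence. Medium: pH 7.4 Tris-HCl (50 mM) with ovalbumin, ATP-MgCl2, DTT. Times: 30 min preincubation with enzyme, 25 min cleavage at room temperature. Detection: AMC fluorescence intensity at 355/460 nm.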
ALR inh: blocks human ALR sulfhydryl oxidase activity | P55789 | purified ALR, DTT oxidation, H2O2 HRP-luminol luminescence | inhibition, % (test concentration not listed) | 290,000 compounds, 3.8% hits | AID 485317;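 active = mean and each replicate at 75% or more; inconclusive = only one of the two met; inactive = neither met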;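 note: stock transfer was 7.5 nL into about 7.5 µL; 0% = neutral wells and 100% = wells with inactivated enzyme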
HNF4A DNA FP: change in binding of human HNF4 alpha to DNA; P41235; HNF4a-FITC DNA binding, fluorescence polarization, 1 h; activity change, % at 10 µM; 360,000 compounds, 0.3% hits; AID 1224865; in the data active = activity change above about 30%, passing the limit was not always enough;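 note: controls were the assay level and a saturating level of protein; the project sought stronger binding though the title names inhibitors; some compounds called inactive have numbers as strong as hits; positive values seem to mean higher polarization but the record does not say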
Target sequence (P41235 whole entry, looked up): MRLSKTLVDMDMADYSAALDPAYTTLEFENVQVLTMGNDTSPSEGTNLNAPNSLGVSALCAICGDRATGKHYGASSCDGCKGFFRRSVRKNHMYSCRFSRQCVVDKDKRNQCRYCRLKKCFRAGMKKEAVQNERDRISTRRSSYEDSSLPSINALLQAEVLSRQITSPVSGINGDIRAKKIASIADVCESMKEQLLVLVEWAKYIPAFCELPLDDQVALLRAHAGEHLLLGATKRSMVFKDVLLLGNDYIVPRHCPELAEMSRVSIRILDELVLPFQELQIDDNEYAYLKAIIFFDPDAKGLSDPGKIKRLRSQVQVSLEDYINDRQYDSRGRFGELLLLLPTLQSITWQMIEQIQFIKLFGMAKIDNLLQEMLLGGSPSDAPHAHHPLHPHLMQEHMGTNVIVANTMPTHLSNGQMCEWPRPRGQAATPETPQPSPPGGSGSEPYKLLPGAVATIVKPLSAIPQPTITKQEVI
LANA-H2A inh: blocks KSHV LANA binding to histone H2A/H2B. Q9QR71. cell-free LANA-H2A/H2B peptide, fluorescence polarization. inhibition, % (test concentration not listed). 320,000 compounds, 0.6% hits. AID 2629; in the data active = inhibition mostly above about 10%, no sharp cut-off; inactive = mostly below about 6.7%;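 note: stock transfer was 7.5 nL into about 10 µL; 0% = median of vehicle wells and 100% = median of positive control wells; one replicate is shown; the record names a cut of 25% in any replicate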
* marks the source's active call; other numbers are inactive results; i = inactive; ? = inconclusive; . = no result given. An excerpt; rates above refer to the full screens.

SMILES | E coli growth | FGF22 binding | Beta2AR agonist | UCH37 inh | ALR inh | HNF4A DNA FP | LANA-H2A inh
COc1ccc(-c2csc(N(C)C(=O)c3ccco3)n2)cc1 | 0.65 | i | 0 | 0.6 | -7 | 1.5 | 3.7
CCN(CC)c1ccc(NC(=O)COc2ccc(C)cc2)cc1 | 0.64 | . | 2 | 5.5 | 72 | 3.2 | 3.9
C/C(=C\C(=O)O)C12CC3CC(CC(C3)C1)C2 | 0.72 | . | 9 | 2.9 | 8 | -2.2 | -0.9
Cc1ccc(C(=O)N2CCN(C(=O)CN3CCCC3)C2)cc1 | 0.69 | . | -1 | 1.8 | 5 | -1.9 | 3.4
Oc1cccc(Nc2nc(O)c(/C=C3\C=Nc4ccccc43)s2)c1 | 0.67 | i | -130 | 4.3 | 13 | 150 | -9.9
COc1ccc(NC(=O)c2cccnc2Nc2ccccc2)cc1 | 0.67 | . | 0 | 3.0 | -8 | -3.7 | -2.7
Cc1ccc(-c2cc(C(=O)N/N=C/c3ccc(F)cc3)n[nH]2)o1 | . | i | 11 | . | 5 | -2.4 | 1.7
CCOC(=O)C/C(C)=N/NC(=O)COc1ccccc1C | . | i | -2 | . | 3 | -4.4 | -3.3
Cc1cc(-c2nc3cc(F)ccc3s2)ccc1N | . | i | 7 | . | . | 0.7 | .
C=CCn1c(-c2ccccc2)c[nH]c1=S | 0.67 | . | 0 | 0.0 | 37 | 1.0 | -1.6
O=C(NCCC(=O)N1CCN(S(=O)(=O)c2ccccc2)CC1)c1ccc(Br)cc1 | 0.66 | i | 1 | 6.1 | -2 | -1.3 | -3.8
O=c1c(C(c2ccc(Br)cc2)c2c(O)nc3n(c2=O)CCS3)c(O)nc2n1CCS2 | 0.64 | i | -6 | 6.9 | 52 | -1.5 | 0.2
Cc1ccc(NC(=O)CSc2nnc(CCNC(=O)OC(C)(C)C)o2)c(C)c1 | 0.67 | . | 18 | -2.5 | -1 | 0.0 | 0.3
Cc1cccc(N2CCN(C(=O)CN3CCOc4ccccc43)CC2C)c1 (centres undefined) | 0.77 | i | 2 | -0.3 | ? | 5.6 | 4.3
COc1ccc(C(=O)OCC(=O)NC(=O)NC2CCCC2)cc1[N+](=O)[O-] | 0.67 | i | -4 | 4.8 | -3 | 1.1 | 3.8
CNC(=O)COC(=O)c1ccc(-c2nc3ccccc3s2)s1 | 0.65 | i | -12 | -198 | -13 | -2.7 | -0.2
CCCCN(CC)CCNc1c(NC2CCN(C(=O)OCC)CC2)c(=O)c1=O | 0.69 | i | 0 | 2.6 | 11 | 1.3 | 0.2
Cc1ccc(NC(=O)CN2CCCN(S(=O)(=O)c3ccc(Br)s3)CC2)cc1 | 0.67 | i | -3 | 1.3 | -14 | 1.2 | -0.2
Cc1cc(C(=O)CN2C(=O)NC(C)(c3ccccc3)C2=O)c(C)n1CC1CCCO1 (centres undefined) | 0.68 | . | 1 | -1.1 | 1 | -2.2 | 0.1
COc1ccc(C(=O)n2nnc3ccccc32)cc1OC | 0.68 | i | 0 | 5.1 | . | -1.4 | -1.2
CC(NC(=O)/C(C#N)=C/c1cn[nH]c1-c1ccccc1)c1ccccc1 (centres undefined) | 0.71 | . | 3 | 1.4 | 14 | -2.6 | -2.0
COc1ccc(NC(=S)N(CCCN2CCOCC2)Cc2ccccn2)cc1 | 0.65 | i | -10 | 2.2 | . | -2.1 | 0.4
COC(=O)c1cccc(NC(=O)CCc2cc(OC)c(OC)c(OC)c2)c1 | 0.71 | . | 4 | 3.6 | 3 | 0.0 | 0.7
CCOc1ccccc1NC(=O)CCCn1cc([N+](=O)[O-])cn1 | 0.73 | i | 4 | 1.0 | 47 | -3.0 | -1.2
CCC1(c2ccc(F)cc2)NC(=O)N(CC(=O)Nc2ccccc2C)C1=O (centres undefined) | 0.67 | i | -5 | 4.5 | 0 | -1.5 | -1.9
Other entries follow:
SMILES | E coli growth | FGF22 binding | Beta2AR agonist | UCH37 inh | ALR inh | HNF4A DNA FP | LANA-H2A inh
COc1cccc(NC(=O)CCC2CCN(C(=O)c3cccc(NC(C)=O)c3)CC2)c1 | 0.7 | i | -8 | 5.2 | -15 | 1.6 | -1.6
O=C(NC1CC1)c1cccc(NC(=O)C2CC2)c1 | . | i | -11 | . | . | -2.9 | .
CC(=O)Nc1nonc1-c1nc2ccccc2n1CC1CC1 | 0.7 | . | -9 | -10 | 42 | 0.6 | 2.5
CCC(C)N(C(=O)COC(=O)CNC(=O)c1sc2ccccc2c1Cl)C1CCS(=O)(=O)C1 (centres undefined) | 0.65 | i | 3 | 0.7 | -3 | -1.1 | 0.0
Cc1cccc(C(=O)NCc2nnc(SCC(=O)Nc3nnc(C)s3)n2C)c1 | 0.67 | i | 4 | 4.6 | 3 | 1.0 | -0.5
Cc1[nH]c2ccccc2c1C(C[N+](=O)[O-])c1ccco1 (centres undefined) | 0.73 | i | 5 | 3.9 | 21 | 1.6 | -3.4
CCOC(=O)c1c(NC(=S)NC)sc2c1CCCC2 | 0.67 | i | 13 | 4.0 | . | 0.2 | -1.5
O=c1[nH]c2ccccc2nc1C(F)(F)F | 0.68 | i | 0 | -51 | . | -2.0 | -4.3
CCCN1C2CCCC1CC(NC(=O)c1ccccc1OCC)C2 (centres undefined) | 0.7 | . | -8 | 3.3 | 1 | -0.9 | 4.4
CC1(C)OC(=O)C(=CNC(CCC(N)=O)C(=O)O)C(=O)O1 (centres undefined) | 0.7 | . | -4 | -0.1 | . | -2.0 | -0.1
CCOc1cc(C)c(Cl)cc1S(=O)(=O)N(C)C | 0.75 | . | -8 | 2.5 | -2 | -3.2 | 6.0
CC(C)=CCCC1=CCC(/C(C)=N/NC(N)=O)CC1 (centres undefined) | . | i | 2 | . | -5 | -3.0 | -0.4
O=C(CSc1nnnn1-c1ccccc1)Nc1ncc2c(n1)CC(c1ccco1)CC2=O (centres undefined) | 0.69 | . | -11 | -19 | -11 | 0.2 | 2.4
COc1ccc(/C=N/NC(=O)c2cc3c(ccc4ccccc43)o2)c(OC)c1 | . | i | 10 | . | . | -0.7 | .
CCOc1cc(NC(=O)c2ccccc2OC)c(OCC)cc1NC(=O)c1ccccc1 | 0.74 | i | 7 | -111 | -8 | -1.0 | -2.2
CC1CC(C)CN(C(=O)CNC(=O)c2sc3ccccc3c2Cl)C1 (centres undefined) | 0.65 | i | 6 | 0.9 | 38 | 0.8 | -1.9
CC(C)OP(=O)(c1ccc(N(C)C)cc1)C(O)c1ccncc1 (centres undefined) | 0.65 | . | -1 | 0.9 | -3 | -3.1 | -1.9
Cc1cc(C)cc(OCC(=O)OCCN2C(=O)c3ccccc3C2=O)c1 | 0.72 | . | 0 | 1.6 | . | 1.6 | 2.9
O=C(Nc1cccc(-c2nc3cccnc3s2)c1)C1c2ccccc2Oc2ccccc21 | 0.79 | i | 74* | -6.4 | . | 47* | .
O=S(=O)(NC(=NCc1ccccc1)c1ccc(F)cc1)c1ccc(Cl)cc1 | 0.67 | i | -6 | -2.3 | -11 | -2.3 | -1.7
CCOC(=O)Cn1c(=O)c2c(nc3n2CCS3)n(C)c1=O | 0.68 | . | -6 | 0.2 | -4 | 0.0 | 6.0
CCOC(=O)N1CCN(CCC(=O)Nc2ccc(OC(F)(F)F)cc2)CC1 | 0.72 | . | -18 | -0.5 | -3 | 2.3 | -0.6
Cc1ccc(C(=O)N2CCN(C(=O)CN3CCOCC3)C2)cc1 | 0.77 | . | 7 | 3.9 | 0 | 2.3 | 0.3
CN(C)C=NC(=O)c1cc(C(=O)c2ccc(Cl)cc2Cl)c[nH]1 | 0.62 | . | -5 | 3.8 | 4 | -3.2 | 3.5
COc1cc(C(=O)OCC(=O)N2CCCC2=O)cc(OC)c1C | 0.7 | i | -1 | 0.8 | 0 | -5.7 | 1.4

Single values from the entries so far:
COc1cc(C(=O)OCC(=O)N2CCCC2=O)cc(OC)c1C in ALR inh is listed with 0
CC(C)=CCCC1=CCC(/C(C)=N/NC(N)=O)CC1 (centres undefined) in Beta2AR agonist is listed with 2

(more compounds)
SMILES | E coli growth | FGF22 binding | Beta2AR agonist | UCH37 inh | ALR inh | HNF4A DNA FP | LANA-H2A inh
COc1ccccc1C(=O)Nc1ccc(OCC(=O)N2CC(C)CC(C)C2)cc1 (centres undefined) | 0.64 | i | 5 | 1.6 | -28 | 3.9 | -1.2
CCN(CC(=O)Nc1ccc(S(=O)(=O)N2CCOCC2)cc1)Cc1ccccc1 | 0.6 | i | -3 | 1.2 | -8 | -7.9 | 4.7
O=C(O)Cc1ccc(C(=O)c2ccccc2F)s1 | 0.64 | . | 2 | 3.6 | -9 | 1.1 | -1.6
c1cncc(CSc2ccc(-c3cccs3)nn2)c1 | 0.68 | i | 1 | 2.9 | -4 | -1.5 | -4.2
COCCn1c(=NC(=O)c2ccc(S(=O)(=O)N3CCCc4ccccc43)cc2)sc2cc(S(C)(=O)=O)ccc21 | 0.73 | . | 19 | 2.6 | -6 | 0.5 | -1.9
CC(SC(=S)N(C)Cc1cccs1)C(=O)O (centres undefined) | 0.69 | i | 0 | 1.1 | -12 | -0.6 | 0.9
O=C(Nc1cccnc1Cl)c1cc(-c2cccc(Cl)c2)on1 | 0.69 | i | -2 | 1.2 | . | -0.3 | 3.2
Cc1ccc(-n2c(C)nn(CCOc3ccccc3)c2=O)cc1 | 0.72 | i | -4 | 1.7 | 0 | 3.2 | -1.0
O=S(=O)(Cc1ccc(Cl)cc1)Oc1ccc(Cl)cc1 | 0.71 | i | -2 | 2.8 | . | 1.0 | .
CCOC(=O)C1=C(C)Nc2ccccc2N=C1NC(=O)c1oc2ccccc2c1COC | 0.63 | i | 14 | 0.5 | -3 | 9.2 | -2.0
OC1=C(O)c2nc3cc(C(F)(F)F)ccc3nc21 | 0.65 | i | -12 | 6.4 | 98* | -1.7 | -1.0
CCS(=O)(=O)N1CCC(C(=O)NCc2ccc3c(c2)OCO3)CC1 | 0.64 | i | 3 | 3.0 | -3 | -0.3 | -2.6
CC1C2CC(C(S(=O)(=O)N3CCOCC3)C2=O)C1(C)C (centres undefined) | 0.68 | . | 5 | 1.4 | -11 | 2.3 | -2.1
CCOc1ccc(N=Cc2ccc3ccccc3c2)cc1 | 0.6 | i | -5 | -1.3 | -15 | 0.2 | 5.2
Cc1ccc(Cn2nnc3c(=O)[nH]c(C4CCN(S(=O)(=O)c5ccc(C)cc5)CC4)nc32)cc1 | 0.74 | . | 3 | 1.0 | -9 | 0.9 | 1.6
CCc1nnc(NC(=O)c2ccc(Br)c(S(=O)(=O)N3CCOCC3)c2)s1 | 0.7 | . | -8 | -1.8 | . | 4.0 | -6.7
CCOc1ccc(Nc2nc(Cc3nnc(SCC(=O)c4ccc(C)cc4)o3)cs2)cc1 | 0.74 | . | -2 | 1.7 | -5 | 0.7 | -1.5
Cc1nc2sc(C(c3ccc(Cl)cc3)N3CCOCC3)c(O)n2n1 (centres undefined) | 0.75 | . | -2 | 1.6 | -17 | 2.4 | 3.4
COc1ccc(/C=C2/C(=O)C(C)(C(C)C)CCC2C)cc1 (centres undefined) | 0.72 | i | 3 | 1.0 | -5 | 2.2 | -3.2
Cc1[nH]n(C(N)=S)c(=O)c1N=Nc1ccc(Br)cc1 | 0.66 | i | 6 | 7.3 | 1 | 6.0 | -0.6
COc1ccc(S(=O)(=O)N2CCC(C(=O)Oc3c(OC)cccc3OC)CC2)cc1OC | 0.69 | i | 4 | 3.6 | 1 | -2.3 | 1.1
COC(=O)c1ccccc1NC(=O)c1cccnc1 | 0.66 | i | -3 | 5.5 | 1 | -6.1 | 1.7
O=C(NCCc1ccccc1)c1ccc(NC2=NC3CS(=O)(=O)CC3S2)cc1 (centres undefined) | 0.69 | i | 2 | 3.2 | -7 | -0.3 | -1.9

Sorted by value in ALR inh (ascending): three from the list above
SMILES	ALR inh
CCOc1ccc(N=Cc2ccc3ccccc3c2)cc1	-15
CCS(=O)(=O)N1CCC(C(=O)NCc2ccc3c(c2)OCO3)CC1	-3
OC1=C(O)c2nc3cc(C(F)(F)F)ccc3nc21	98*
